Screening results: PubChem, several laboratories
PABP polyA inh – PABP-poly(A) binding inhibition | AID 2014 | hit rate 1% among 290,000 | P11940 | inhibition, % at 35 µM | PABP-poly(A) RNA binding, fluorescence polarization;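 active means 50% or more with normal probe brightness, or confirmed in later tests; inconclusive means above 50% with abnormal brightness, or retests that disagree; inactive means below 50% or failed in later tests; about a fifth of its hits are not listed in these tables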;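 further: calls also rest on retests at 20 µM and on dose response follow-up; controls were probe without protein and protein plus probe with vehicle; some compounds called inactive have numbers as strong as hits; many hits fall short of the cut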
Target sequence (P11940 whole entry, looked up): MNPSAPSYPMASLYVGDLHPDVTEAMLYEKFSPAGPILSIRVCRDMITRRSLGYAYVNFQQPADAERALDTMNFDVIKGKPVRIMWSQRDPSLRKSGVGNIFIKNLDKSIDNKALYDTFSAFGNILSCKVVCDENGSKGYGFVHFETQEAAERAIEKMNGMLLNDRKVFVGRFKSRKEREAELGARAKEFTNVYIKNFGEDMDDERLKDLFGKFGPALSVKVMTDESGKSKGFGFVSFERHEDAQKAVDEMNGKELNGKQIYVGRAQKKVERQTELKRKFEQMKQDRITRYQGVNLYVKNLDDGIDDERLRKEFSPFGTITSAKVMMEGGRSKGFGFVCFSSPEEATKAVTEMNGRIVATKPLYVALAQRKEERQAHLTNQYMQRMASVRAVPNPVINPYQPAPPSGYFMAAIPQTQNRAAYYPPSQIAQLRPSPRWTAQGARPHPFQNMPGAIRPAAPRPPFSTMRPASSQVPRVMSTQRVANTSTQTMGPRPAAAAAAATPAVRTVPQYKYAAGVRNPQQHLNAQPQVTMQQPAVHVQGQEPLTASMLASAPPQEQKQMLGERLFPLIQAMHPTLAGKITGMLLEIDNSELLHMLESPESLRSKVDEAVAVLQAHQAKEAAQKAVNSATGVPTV
UUG fidelity – yeast start codon fidelity modulation | activity score, % at 18.7 µM | hit rate 0.13% among 350,000 | S. cerevisiae UUG-firefly luciferase reporter, luminescence/redox ratio;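 active means replicate mean at a twofold rise or more, about +100% in these data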;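 further: firefly luciferase made from a UUG start codon reports start codon fidelity; reporter light over untreated wells divided by growth signal over untreated wells; some hits fall short of that in this replicate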
MT1-MMP act inh – blocks activation of human MT1-MMP | P50281 | GFP/RFP ratio change, % at 20 µM | hit rate 0.061% among 360,000 | HT1080 RFP-PRO-GFP cells, GFP/RFP ratio fluorescence, overnight; percent of plate control window, DMSO zero | AID 651647;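 active means GFP/RFP ratio change of at least 30% with cell ATP level not reduced by more than half and red fluorescence within 50% of control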; further: strong numbers were not always called active
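Material: RFP-PRO-GFP reporter HT1080 cells. Dosing: single-point 20 µM compound, 1% DMSO. Controls: DMSO and RFP-L50D-GFP cell wells. Timing: cells overnight before dosing, compound overnight, 37 °C, 5% CO2. Measure: GFP/RFP fluorescence ratio.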
HIV Env fusion – blocks HIV Env-driven cell-cell fusion; HeLa-JRFL Env/CEM21 cell fusion, luciferase; inhibition, % at 12.3 µM; hit rate 1.1% among 360,000; AID 651610;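 active means mean replicate inhibition score of at least 50 and every replicate individually at or above 50; inconclusive means only one of the two criteria met; inactive means mean below 50 and not all replicates reaching 50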;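 further: 0% = plate neutral controls and 100% = maraviroc near 300 nM; one replicate is shown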
Rce1 inh – inhibitors of yeast Ras-converting enzyme; AID 2563; hit rate 0.27% among 290,000; calls only; Q03530; yeast membranes, quenched prenylated peptide cleavage fluorescence;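 active means fall in fluorescence gain of 50% or more versus controls, with final raw signal at or below 3038400; inconclusive means same 50% fall but final raw signal above 3038400; inactive means fall in fluorescence gain under 50%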;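 further: plate controls were neutral control wells for no effect and wells lacking membranes for full effect; tested at 10 µM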
Target sequence (Q03530 whole entry, looked up): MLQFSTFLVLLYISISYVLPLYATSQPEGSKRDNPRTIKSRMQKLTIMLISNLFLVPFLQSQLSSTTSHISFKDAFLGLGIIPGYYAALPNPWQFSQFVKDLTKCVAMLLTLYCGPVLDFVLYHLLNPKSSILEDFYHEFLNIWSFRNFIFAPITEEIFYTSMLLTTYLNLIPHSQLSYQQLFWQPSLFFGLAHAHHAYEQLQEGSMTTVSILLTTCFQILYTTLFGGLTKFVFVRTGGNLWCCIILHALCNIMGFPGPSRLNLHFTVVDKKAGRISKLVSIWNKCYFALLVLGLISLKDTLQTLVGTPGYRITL
CSC inhib – cancer stem cell inhibition; inhibition, % at 7.5 µM; cancer stem cell-like cells viability, luminescence; hit rate 1.1% among 300,000;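 active means mean at 75% or more and at least half the replicates too; inconclusive means mean and replicates disagree; tested in HMLE shEcad cells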;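 further: 0% = median of negative and 100% = median of positive control wells; the first replicate is given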
eIF4H FP inh – inhibitors of RNA binding by human eIF4H; Q15056; inhibition, % at 35 µM; eIF4H fluorescence polarization binding assay; hit rate 0.94% among 290,000;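 active means 50% or more with normal probe brightness, or confirmed in later tests; inconclusive means above 50% with abnormal brightness, or retests that disagree; inactive means below 50% or failed in later tests; about a fifth of its hits are not listed in these tables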;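 further: calls also rest on retests at 20 µM and on dose response follow-up; 0% = protein and probe with vehicle and 100% = probe without protein; strong numbers were not always called active; many hits fall short of the cut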
eIF4H FP inh retest – further read-out of eIF4H FP inh, marked with its call; inhibition, %; compound at 20 µM; confirmation average;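 mean of two retest wells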
PABP polyA inh retest – recorded beside PABP polyA inh, whose call it bears; inhibition, %; compound at 20 µM; confirmation repeats;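 mean of two retest wells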
MT1-MMP act inh RFP – further read-out of MT1-MMP act inh, marked with its call; RFP signal change, %; measured here: RFP expression control read;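 0 = vehicle wells; hits needed this value within 50% of zero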
An asterisk follows results filed as active; i = inactive; ? = inconclusive; · = no result given; & = joins results of further samples; [ ] = another dose, or the depositor's remark. A portion of the library, so the mix of outcomes need not match the whole.

SMILES	PABP polyA inh	UUG fidelity	MT1-MMP act inh	MT1-MMP act inh RFP	HIV Env fusion	Rce1 inh	CSC inhib	eIF4H FP inh	others
O=c1c2ccccc2sn1-c1ccc(Cl)cc1	·	-19	1	-25	22	·	·	·
Cc1nc2cc(NC(=O)NCc3ccco3)ccc2o1	-5	-17	1	0	·	i	-9	-6
O=C(Cc1ccccc1F)NNC(=O)c1ccncc1	6	-22	4	-1	-30	·	-7	-6
COc1ccc(NC(=O)N(C)C[C@H]2OCc3cn(nn3)CCCC(=O)N([C@@H](C)CO)C[C@@H]2C)cc1	·	-4&12	3	7	40	·	·	·
CCOc1cc(/C=C2/COc3ccccc3C2=O)ccc1OCC(=O)N(C)C	-6	·	-3	-2	16	·	·	2
CCn1nc(C)c(CNC(=O)c2cc(COc3ccccc3SC)on2)c1C	-3	-20	1	-17	41	i	11	-8
CC1(C)C(c2cccs2)=NC(c2ccccc2)N1O (centres undefined)	1	-4	-1	-3	-73	i	13	-8
CC(=O)OC(C(=O)NCc1ccc(F)cc1)c1ccccn1 (centres undefined)	-2	13	1	-1	·	i	2	4
O=C(CCc1ccc(Oc2cc([N+](=O)[O-])cc([N+](=O)[O-])c2)cc1)N1CCCCC1	4	6	-6	-10	-7	i	-3	-4
COc1ccc(C(=O)Nc2cccc(-c3nc4ncccc4o3)c2C)cc1	12	-5	1	1	·	i	-16	8
O=C(CC(NC(=O)c1ccccc1Cl)c1ccccc1)NC1=NCCS1 (centres undefined)	3	·	-7	2	-22	i	5	-6
Cc1cccc(NC(=O)c2ccc3c(c2)C(=O)N(c2ccccn2)C3=O)c1C	5	-10	0	0	·	i	·	-9
O=C(Cc1ccc(S(=O)(=O)N2CCOCC2)s1)N1CCN(c2cccc(C(F)(F)F)c2)CC1	-3	-12	2	-13	·	i	-13	-3
CCc1cc(C(=O)Cc2cnn(-c3ccccc3)c2)c(O)cc1O	4	0	8	-2	0	i	50	-6
CCc1cc2c(=O)nc3n(c2s1)Cc1ccccc1/C3=C(/O)c1ccccc1Cl	108	-10	-15	-2	·	i	·	98	eIF4H FP inh retest=-4;PABP polyA inh retest=8
Cc1ccc(-c2nc(CS(=O)CC(=O)NC3CCCCC3)c(C)o2)cc1 (centres undefined)	-15	-13	1	1	7	i	-2	-4
COCCn1c(=S)[nH]c2cc(C(=O)N3CCCC(C)C3)ccc2c1=O (centres undefined)	3	-17	-1	-22	-19	i	-17	7
Cc1cccc(C(=O)Nc2nnc(-c3cccnc3)o2)c1	3	·	6	6	-6	i	2	3
O=C(NCCCN1CCOCC1)c1coc2ccccc2c1=O	9	·	3	7	·	i	-12	-6
CS(=O)(=O)N1CCC(C(=O)NCC2CCCO2)CC1 (centres undefined)	-3	-22	-5	-6	·	i	-4	-8
CCCCCc1nnc(NC(=O)Cc2ccc([N+](=O)[O-])cc2)s1	-8	·	4	1	5	i	-4	-2
CC1=C(C(=O)OC(C)C)C(/C=C/c2ccccc2)NC(=O)N1 (centres undefined)	-4	-14	1	5	·	i	-10	-7
CC1CCCCN1C(=O)NC1CC(=O)N(c2ccc3c(c2)OCCO3)C1 (centres undefined)	·	-20	0	5	·	i	-25	·
Cc1cc(NC(=O)CSc2nnc(C3CC3)n2C)no1	-7	-15	-2	6	-17	i	-26	13
CC(OC(=O)CNC(=O)c1ccc(Cl)c(Cl)c1)C(=O)N1CCOCC1 (centres undefined)	·	·	1	2	-180	i	-6	·
CCOC(=O)C1=C(c2ccccc2)c2ccc(OC)cc2N(S(=O)(=O)C(F)(F)F)C1C(=O)OCC (centres undefined)	·	9	1	-2	27	·	·	·
CC(=O)c1cccc(NC(=O)C2CCN(S(=O)(=O)c3c(C)n[nH]c3C)CC2)c1	-2	-6	5	0	-37	i	-12	-13
COc1ccccc1S(=O)(=O)Cc1ccc(C(=O)NCc2cccnc2)o1	2	-4	1	0	14	i	-3	-8
CN(C)c1ccc(/C=C/C(=O)c2ccccc2)cc1[N+](=O)[O-]	-4	-10	1	4	-56	i	20	-6
COc1ccc2[nH]c3c(c2c1)CCN1C(=O)N([C@@H](C)C(=O)NCc2ccccc2OC)C(=O)[C@]31C	8	4	4	-1	·	i	-9	-4
CCCC(=O)C1=C(O)C(C(=O)OC)C(C)(C)CC1=NCCc1ccccc1 (centres undefined)	-5	6	-1	-6	10	i	-9	-7
COc1ccc(C(=O)C2CCN(C(=O)c3ccco3)CC2)cc1	-5	-17	1	-1	4	i	-3	-6
COCC(=O)N[C@H]1CC[C@@H](CC(=O)NCc2ccccc2OC)O[C@@H]1CO	·	-20	3	2	8[16.7 µM]	·	·	·
O=C(Cn1cnc2cc([N+](=O)[O-])ccc2c1=O)NC(c1ccccc1)c1ccccc1	3	-16	3	2	-12	i	8	5
CC(=O)c1ccc(NC(=O)C2(c3ccccc3)CCOCC2)cc1	0	5	2	7	-52	i	-12	-3
Cc1cc(C)cc(-n2ncc3c2CCCC3NC(=O)CCN2Cc3ccccc3C2=O)c1 (centres undefined)	4	-6	0	1	-103	i	-1	-15
N#CC1=C2SCN(Cc3ccccc3)CN2C(=O)CC1c1cccs1 (centres undefined)	20	-12	3	9	23	i	0	13
COc1cc(C)nn1-c1ccc(Cl)cc1	12	·	0	3	-4	i	8	-8
O=C(Cc1cccs1)NCCc1ccc(F)cc1	-7	-7	2	2	-5	i	-13	-19
O=C(c1ccc(F)cc1)N1CCN(c2ccc([N+](=O)[O-])c(N3CCOCC3)c2)CC1	10	·	1	-1	·	i	-22	-4
COc1ccc(NC(=O)c2ccc(Br)c(S(=O)(=O)N3CCOCC3)c2)cc1	-2	·	1	-16	28	i	·	-6
C=CCn1c(SCC(=O)N2CCCCC2)nc(O)cc1=O	15	12	1	2	·	i	1	5
COc1ccc(N2C(=O)c3cccc4cc(Br)cc(c34)C2=O)cc1	0	-7	1	10	4	i	6	2
CCCN(CCC)S(=O)(=O)c1ccc(C(=O)N2CCCc3ccccc32)cc1	1	-6	2	-6	-24	i	5	-13
Cc1ccc(C2C(C(=O)c3cc4ccccc4o3)=C(O)C(=O)N2CCN2CCOCC2)o1 (centres undefined)	5	-11	-9	5	-39	i	-6	8
Cc1ccc(N=Cc2sc(O)c3ccccc23)c(C)c1	6	·	1	3	-278	i	4	?
Cc1ccc(NC(=O)c2cc(S(=O)(=O)N3CCOCC3)cn2C)cc1F	-5	-17	20	-2	43	i	-10	0
CC(=NCC1CCCO1)C1=C(O)CC(C)(C)CC1=O (centres undefined)	-9	-6	4	16	·	i	-3	-4
COc1ccc(C(CC(=O)N2CCOCC2)C(C)C)cc1 (centres undefined)	-7	1&-10	9	7	·	i	·	2
Cc1c(NC(=O)CSc2nnc(N)s2)c(=O)n(-c2ccccc2)n1C	-12	-19	4	3	14	i	0	-9
COC(=O)C1CC2=C(CCCC2=O)N(c2ccccc2)C1=O (centres undefined)	·	-10	2	5	-6	·	·	·
Cc1ccc(-c2cc(C(=O)NCCc3ccccn3)c3ccccc3n2)c(C)c1	-8	·	9	-3	-15	i	16	-13
CCNc1nc(NC(C)C)nc(N(C#N)C(C)C(=O)N(C)C)n1 (centres undefined)	5	-12	4	5	·	i	-6	3
CCOc1ccc(C(=O)Nc2cccc(C)n2)cc1	29	-48	2	-4	·	i	20	-8
Cc1ccc(NC(=O)Cc2ccc(F)cc2)cc1	0	-14	-3	-2	·	i	-4	-2
O=C(CSc1nnc(-c2ccc(F)cc2)o1)NC1CCCC1	8	-1	1	1	6	i	·	-6
CC1Cn2c(nnc2C23CC4CC(CC(C4)C2)C3)S1 (centres undefined)	0	-17	3	6	·	i	-4	-10
Fc1cccc(CNCC2CCCO2)c1 (centres undefined)	-1	-9	0	3	3	i	6	0
CC(O)Cc1cn(CC(=O)N2CCN(C(=O)OC(C)(C)C)CC2)nn1 (centres undefined)	6	-2	2	4	-48	i	-15	-6
COc1ccc(C(CNC(=O)c2ccc(NS(=O)(=O)c3ccc(F)c(C)c3)cc2)N2CCOCC2)cc1 (centres undefined)	·	-31	1	-1	·	i	-6	·

Next structures:
SMILES	PABP polyA inh	UUG fidelity	MT1-MMP act inh	MT1-MMP act inh RFP	HIV Env fusion	Rce1 inh	CSC inhib	eIF4H FP inh	others
O=C(CSCc1ccc(Cl)cc1)N/N=C/c1ccc(Cl)cc1Cl	2	6	1	4	18	i	17	2
CC1CCC(NC(=O)C2CCN(S(=O)(=O)c3cccc4nonc34)CC2)CC1 (centres undefined)	8	-5	3	2	1	i	-21	7
CCn1ccnc1CN(C)C(=O)c1cc(COc2ccc(OC)c3ccccc23)on1	-2	-12	-3	0	23	i	-2	0
O=C(Nc1ccc(Cl)cc1)OC(CN1CCCCC1)C(F)(F)F (centres undefined)	3	-2	5	-2	·	i	5	-4
CCCCNC(=O)C1(C)CCCCN1C(=O)c1cc(OC)ccc1Br (centres undefined)	·	11	0	2	5	·	·	·
COCCCN=C1NN=C(c2cc(C)n(Cc3ccccc3Cl)c2C)CS1	0	·	3	-9	-339	i	-6	-4
COc1ccc(NC(=O)c2noc(C(C)C)c2[N+](=O)[O-])cc1	-10	528*	5	-2	12	i	-1	-4
CCC(C(=O)NC1CCCC1)N(C(=O)Cn1nnc(-c2ccc(OC)c(OC)c2)n1)C1CCCCC1 (centres undefined)	-1	19	-9	-5	·	i	6	-2
O=C(CCn1ccc2cc(S(=O)(=O)N3CCCC3)ccc21)NCc1ccccc1F	12	-10	-2	-2	11	i	-21	-2
COc1ccc(-c2cc(C(F)(F)F)n3ncc(C(=O)NCc4ccco4)c3n2)cc1	6	-13	3	-2	·	i	39	2
Cc1nc(SCC(=O)Nn2c(-c3ccccc3)nc3ccccc3c2=O)n[nH]1	-11	-1	0	4	·	i	-1	-13
Cc1cc(NC(=O)Nc2cccc(Cl)c2)n(C(C)(C)C)n1	2	-18	3	6	-4	·	-13	8
COc1ccccc1NC(=O)CSC1=NC(=O)C(NC(C)=O)C(=O)N1 (centres undefined)	4	-6	1	4	·	i	-4	0
O=C(CCc1ccc(O)c(O)c1)NNC(=S)NCCc1ccccc1	-14	·	5	2	26	i	·	-3
COc1ccc(Cl)cc1NC(=O)CSc1nnc(CNC(=O)c2ccco2)o1	10	1	·	·	8	i	-4	-6
COC(=O)c1ccccc1CCC(C)=O	-4	·	1	1	·	i	3	6
CC1=CC(=O)N(c2ccc(C)cc2)C1c1ccc(Cl)cc1 (centres undefined)	-9	-12	-7	-12	2	i	-16	-9
CCNC(=O)CC1C(=O)N(C)C(=S)N1NC(=O)c1ccc(Cl)cc1 (centres undefined)	5	-20	2	-2	·	i	10	5
Cc1ccc(NC(=O)Nc2ccc3c(c2)nnn3C)cc1C	1	-16	5	0	0	·	-7	-9
CCOC(=O)N1CCC(NC(=O)c2cc(C(=O)Nc3ccc(S(=O)(=O)N4CCOCC4)cc3)ccc2CO)CC1	-5	·	6	7	8	i	14	6
